Screens: PubChem BioAssay, Broad Institute
RanGTP-Impb inh: inhibitors of RanGTP-importin-beta interaction, primary screen, biochemical, FRET, CFP-Ran, YFP-importin-beta, homogeneous; Ran GTPase (GTP-bound) - importin-beta complex; cell-free CFP-Ran/YFP-importin-beta FRET ratio; inhibition, % (test concentration not listed); 300,000 compounds, 1.1% hits;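 active means most replicates above 15%; inconclusive means exactly half above 15%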;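 further: 0% = DMSO wells and 100% = Ran loaded with GDP instead of GTP; wells of about 40 µL received 100 nL stock; the first replicate is given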
ALR H2O2 inh: inhibitors of human ALR sulfhydryl oxidase, primary screen, biochemical, H2O2 detection, HRP-luminol luminescence, single point. FAD-linked sulfhydryl oxidase ALR (Homo sapiens), P55789. purified ALR, DTT oxidation. inhibition, % (concentration not given with the values). 290,000 compounds, 3.8% hits;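 active means mean and each replicate at 75% or more; inconclusive means only one of the two met; inactive means neither met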;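 further: stock transfer was 7.5 nL into about 7.5 µL; 0% = neutral wells and 100% = wells with inactivated enzyme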
Target sequence (P55789 whole entry, looked up): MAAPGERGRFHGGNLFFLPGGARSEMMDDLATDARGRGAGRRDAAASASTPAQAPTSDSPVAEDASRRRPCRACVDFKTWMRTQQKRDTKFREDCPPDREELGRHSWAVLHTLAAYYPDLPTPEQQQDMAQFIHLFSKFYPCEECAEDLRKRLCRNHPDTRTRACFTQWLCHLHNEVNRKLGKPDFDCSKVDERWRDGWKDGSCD
Calb FLC: C. albicans growth inhibition with fluconazole, primary screen, CaCi-2 strain, Alamar Blue fluorescence | C. albicans CaCi-2 (fluconazole-resistant clinical isolate) + fluconazole, 48 h | growth inhibition, % (test concentration not listed) | 300,000 compounds, 0.57% hits;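 active means most replicates above 75%; inconclusive means exactly half above 75%; inactive means most below 75%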;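 further: all wells also contain fluconazole at 8 µg/ml as a sub-toxic cotreatment; 0% = median of DMSO wells and 100% = median of geldanamycin control wells; wells of about 8 µL received 7.5 nL stock; the first replicate is given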
T cruzi inh: inhibitors of intracellular T. cruzi growth, primary screen, luminescence, NIH3T3 host cells. T. cruzi beta-gal in NIH3T3, 90 h. inhibition, % (test concentration not listed). 300,000 compounds, 1.4% hits;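 active means mean inhibition across valid replicates above about 55%, limit read from the data; inconclusive means mean below that limit but half or more replicates reach it; inactive means mean below it, under half of replicates reach it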;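 further: signal also drops with host cell toxicity which is not excluded here; 0% = plate median of DMSO wells and 100% = zero luminescence signal; higher percent means less beta-gal luminescence so fewer parasites; stock transfer was 50 nL into about 50 µL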
MLL AF4-AF9 inh: inhibitors of AF4 peptide binding to AF9, primary screen, biochemical, AlphaScreen, biotin-AF4 peptide, FLAG-AF9, single point; Protein AF-9 (Homo sapiens), P42568; inhibition, % at 10 µM; 350,000 compounds, 0.47% hits;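 active means every replicate reaching a set inhibition limit, whatever the replicate mean, cut at about 25% in these data; inconclusive means mean inhibition reaches that limit but some replicates miss it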;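 further: 0% = plate neutral control median and 100% = total signal loss; the record names both 10 and 1 µM as test concentration; the first replicate is given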
Target sequence (P42568 whole entry, looked up): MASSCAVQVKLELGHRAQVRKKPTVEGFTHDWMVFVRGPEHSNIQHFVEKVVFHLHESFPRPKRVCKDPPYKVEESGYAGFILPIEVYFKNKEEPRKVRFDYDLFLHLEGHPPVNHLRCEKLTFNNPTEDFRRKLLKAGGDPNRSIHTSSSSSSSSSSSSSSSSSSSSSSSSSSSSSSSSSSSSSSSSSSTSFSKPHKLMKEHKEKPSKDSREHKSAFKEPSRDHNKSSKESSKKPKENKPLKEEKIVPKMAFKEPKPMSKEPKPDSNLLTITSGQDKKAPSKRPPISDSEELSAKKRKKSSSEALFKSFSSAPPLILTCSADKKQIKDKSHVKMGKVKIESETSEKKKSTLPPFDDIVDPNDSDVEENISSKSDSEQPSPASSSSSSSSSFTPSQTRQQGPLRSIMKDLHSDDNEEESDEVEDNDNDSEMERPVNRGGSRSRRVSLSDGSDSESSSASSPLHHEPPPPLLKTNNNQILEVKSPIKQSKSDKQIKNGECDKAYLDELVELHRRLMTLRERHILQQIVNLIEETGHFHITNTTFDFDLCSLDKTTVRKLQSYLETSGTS
Ecoli rRNA inh: reduced GFP signal of wild-type E. coli, primary screen, bacterial rRNA inhibitor project, GFP/RFP fluorescence, OD600, single point; E. coli WT GFP vs humanized-ribosome RFP mutants, 24 h; stronger effect = lower value; DMSO median 0, no signal -100; GFP signal change (wild-type ribosome), % (concentration not given with the values); 350,000 compounds, 1.6% hits;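 active means significant combined selectivity score with lowered wild-type GFP, culture density cut under 30%, mutant RFP and density less affected; inactive means any of these conditions unmet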; further: one replicate is shown; some compounds called inactive have numbers as strong as hits
FGF22 binding: binders of human FGF22 protein, primary screen, FGF22 synaptogenesis inhibitor project, biophysical, thermal shift, single point. recombinant FGF22 thermal shift, SYPRO orange fluorescence; percent of sucrose octasulfate shift, DMSO zero. Fibroblast growth factor 22 (Homo sapiens), Q9HCT0. calls only at 9.99 µM. 340,000 compounds, 1.5% hits;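 active means melting point raised past a set limit in the mean and every replicate; inconclusive means no clear call; three in four hits are not shown here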
Target sequence (Q9HCT0 whole entry, looked up): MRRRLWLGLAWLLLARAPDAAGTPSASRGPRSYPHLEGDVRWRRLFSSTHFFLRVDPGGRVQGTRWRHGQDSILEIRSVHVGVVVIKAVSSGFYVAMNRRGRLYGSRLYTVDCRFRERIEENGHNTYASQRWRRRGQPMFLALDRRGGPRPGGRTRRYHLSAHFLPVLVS
Beta cell apopt: inhibitors of cytokine-induced beta cell apoptosis, primary screen, luminescence. AID 435005, 2010. protection from apoptosis, % (test concentration not listed). 300,000 compounds, 0.8% hits. INS-1E cytokine-induced death, ATP luminescence, 48 h; percent of positive-control rescue, neutral wells zero;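 active means all replicates at 75% or more, or half of them and the mean; inconclusive means half reach 75% but not the mean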;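 further: 0% = cytokine-treated negative control wells and 100% = positive control rescue; higher means more ATP so stronger rescue from cytokine killing; wells of about 40 µL received 100 nL stock; the first replicate is given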
Ecoli rRNA inh OD600: also measured in Ecoli rRNA inh; calls as there; OD600 change, %; measured here: OD600 growth;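 optical density of the mix in the first replicate; 0 = DMSO median and -100 = no signal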
Ecoli rRNA inh RFP: further read-out of Ecoli rRNA inh, marked with its call; RFP signal change, %; measured here: RFP humanized mutant strains;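 first replicate; 0 = DMSO median and -100 = no signal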
* = called active by the depositor; i = inactive; u = inconclusive; x = not tested or not shown. Not all compounds are listed, so the mix of outcomes need not match the whole.

Sequence of screens – RanGTP-Impb inh	ALR H2O2 inh	Calb FLC	T cruzi inh	MLL AF4-AF9 inh	Ecoli rRNA inh	Ecoli rRNA inh OD600	Ecoli rRNA inh RFP	FGF22 binding	Beta cell apopt
- COCCN(C(=O)CCC(=O)Nc1nccs1)C(C(=O)NCCC(C)C)c1ccc(F)cc1 (centres undefined)
    0.4	-3	-8	2	-1.4	2	15	1.4	i	-3
- CS(=O)(=O)N1CCCC(C(=O)NCCc2ccccc2)C1 (centres undefined)
    8.4	-2	1	-7	x	x	x	x	x	2
- c1coc(CNCCCN2CCOCC2)c1
    5.4	-11	-1	-4	x	x	x	x	x	-2
- O=C1N/C(=C/c2cccn2-c2ccccc2)C(=O)N1c1cccc(Cl)c1
    0.8	-3	4	6	x	x	x	x	x	5
- Cc1ccc(S(=O)(=O)NCC(=O)OCC(=O)N(C)C2CCS(=O)(=O)C2)cc1 (centres undefined)
    4.8	-4	-1	-6	7.0	12	11	3.0	i	-2
- Cc1c(Cl)cccc1Nc1nc(NCCO)c2ccccc2n1
    -7.5	53	-3	56*	3.1	15	-11	5.6	i	17
- CSc1ncc2c(n1)-c1cc(C)ccc1SC2
    -4.2	-3	26	75*	x	x	x	x	x	29
- c1ccc(Cn2c(CN3CCCC3)nc3ccccc32)cc1
    0.3	2	5	-17	x	x	x	x	x	x
- Cc1cc(-n2c(SCCC#N)nnc2-c2cccnc2)ccc1Cl
    -1.1	6	u	8	x	x	x	x	x	0
- Cc1ccc(CNC(=O)c2ccc(N3CCC4(CC3)CC(c3cccc(Br)c3)=NO4)c(NC(=O)c3ccc(Cl)c([N+](=O)[O-])c3)c2)cc1
    x	-1	x	x	-4.2	6	3	-3.2	i	0
- CC(=O)c1c(N2CCN(Cc3ccccc3)CC2)nc(=S)n(-c2ccccc2)c1C
    85*	-1	16	3	13	6	1	4.7	i	-5
- O=C(NNS(=O)(=O)c1ccccc1[N+](=O)[O-])c1cccc(Cl)c1
    3.2	6	-18	-27	x	x	x	x	x	-2
- Cc1nn2c(C(F)(F)F)c3c(nc2c1-c1ccccc1)CCC3
    -2.4	-8	-15	-4	x	x	x	x	x	-1
- C=CCn1c(SCc2cc(=O)n3ccsc3n2)nnc1C1CCCCC1
    6.3	-1	-7	22	x	x	x	x	x	-2
- Cc1ccc(C(=O)Nc2ccc(C(=O)N/N=C/c3ccc(C)o3)cc2)cc1
    1.4	1	3	-2	1.2	-1	0	-0.5	i	5
- CC1=C(C(=O)Nc2ccc(Cl)cc2)C2(CCCCC2)C(C(N)=O)C(=S)N1 (centres undefined)
    2.1	-1	-2	6	14	-7	-4	1.9	i	-9
- CCCCN(C(=O)c1cccc(-n2cnnn2)c1)c1c(N)n(CC(C)C)c(=O)[nH]c1=O
    x	-2	x	x	2.4	9	15	2.8	i	-4
- OC1=C(O)c2nc3ccccc3nc21
    1.8	45	20	-20	6.9	14	9	-6.8	i	-4
- Cn1c(=O)oc2cc(S(=O)(=O)NCc3ccccc3)ccc21
    5.9	1	3	-15	x	x	x	x	x	-4
- Cc1ccc(CCNC(=O)C2CCN(S(=O)(=O)N3CCOCC3)CC2)cc1
    2.2	-4	-2	-2	-5.9	0	7	9.3	i	-2
- O=C1CN(c2nc(-c3ccccc3)c3cc(Cl)ccc3n2)c2ccccc2N1
    1.1	-3	-4	-10	x	x	x	x	x	42
- Cc1cc(=O)n(C)c(=O)n1CCCCCCOc1cccc([N+](=O)[O-])c1
    0.0	x	0	7	x	x	x	x	x	-2
- OCCC1CN(Cc2ccc(Oc3ncccn3)cc2)CCN1C1CCCC1 (centres undefined)
    0.8	-10	0	7	0.7	14	14	1.8	i	0
- O=C(O)CCCC(=O)Nc1nc(-c2ccc(F)cc2)cs1
    -0.4	-1	-2	-6	x	x	x	x	x	0
- CCc1nnc(NC(=O)C(C)Sc2ccccc2)s1 (centres undefined)
    25*	-8	6	-1	-6.2	-2	4	-1.1	i	-4
- CSc1nnc2c(n1)OC=Nc1ccc(Br)cc1-2
    0.8	5	-2	-5	4.4	7	7	1.0	i	-7
- CCOC(=O)c1csc(-c2snnc2C)n1
    3.5	-3	-2	8	-1.4	-21	-19	-1.1	i	-5
- C=CCNc1nc(C(=O)OCC(=O)Nc2ccc(S(N)(=O)=O)cc2)cs1
    5.6	98*	x	-9	-1.7	5	8	0.0	i	-2
- COC(=O)c1cccc(NC(=O)Cn2nnc3ccccc32)c1
    0.5	-6	-12	1	x	x	x	x	x	-3
- COc1ccc(C(C)NC(=O)c2ccc([N+](=O)[O-])cc2)cc1OC (centres undefined)
    -0.9	-5	-6	-1	3.0	12	16	-0.6	i	2
- Cc1cccc(NC(=O)C(c2cccc([N+](=O)[O-])c2)N2CCCCC2)c1 (centres undefined)
    4.0	-3	-3	14	x	x	x	x	x	35
- COc1ccc(NC(=O)CN(C)C(=O)COc2ccccc2Cc2ccccc2)cc1
    x	-14	x	x	-5.5	-19	-44	-4.1	i	-3
- O=C(COc1ncnc2ccccc12)Nc1cccc(S(=O)(=O)N2CCOCC2)c1
    0.1	-2	-16	5	x	x	x	x	x	2
- CCOC(=O)c1ccc(COc2ccc(C(C)C)cc2)o1
    u	5	-4	-8	-6.2	-3	-2	-1.3	i	-9
- Cc1n[nH]c(C)c1CCNCc1ccc(OCC(O)CN2CCCCC2)cc1 (centres undefined)
    1.0	-1	71*	-13	4.2	19	16	1.0	i	-4
- CNC(=O)CN1C(=O)c2ccccc2S1(=O)=O
    -0.4	96*	17	-3	-63	6	-3	-6.2	i	-4
- CCN(CC)CCN(C(=O)c1ccc(S(=O)(=O)N(C)C2CCCCC2)cc1)c1nc2c(C)cccc2s1
    2.4	3	-3	33	1.7	-8	-10	1.1	i	12
- Cc1noc(C)c1CCC(=O)N1CCCC(CCC(=O)NCc2ccc(F)c(F)c2)C1 (centres undefined)
    1.9	-6	10	13	-2.0	14	20	1.7	i	-8
- COc1cc(C(=O)Nc2ccc(S(=O)(=O)NC(C)C)cc2)cc(OC)c1OC
    5.2	-2	-14	-14	x	x	x	x	x	3
- O=C(Nc1nc(-c2cccnc2)cs1)c1ccc(S(=O)(=O)N2CCOCC2)cc1
    3.3	x	-9	-16	x	x	x	x	x	-13
- COCC1CCCN(C(=O)c2cc(COc3cccc4cccnc34)on2)C1 (centres undefined)
    1.9	-13	-2	5	-11	-6	-4	-1.2	i	-4
- Cc1cccc(C)c1OCc1cc(C(=O)NC2CCC2)no1
    1.1	1	5	18	-2.6	-1	-1	-1.5	i	-3
- Fc1ccc2c(c1)[C@H]1OCC[C@H]1[C@@H](c1ccco1)N2
    -1.2	4	-12	6	x	x	x	x	x	-1
- COC(=O)c1cc2sccc2n1Cc1nc(-c2ccc(OC)cc2)oc1C
    -1.9	0	-11	30	x	x	x	x	x	0
- Cc1cc(C)c(NC(=O)CSc2ccc(-c3ccccn3)nn2)c(C)c1
    0.4	-7	10	-2	0.5	5	19	-1.6	i	18
- CCc1nc(C)cc(N)c1OCc1ccccc1
    2.5	4	-10	6	x	x	x	x	x	2
- COC(=O)c1sc(NC(=O)c2ccco2)nc1C
    -4.2	-5	2	-12	x	7	9	-0.8	x	6
- CCNc1nc(C#N)nc2c1ncn2-c1cc(F)cc(F)c1
    x	-7	x	x	-33	5	10	4.6	i	1
- O=c1c2ccccc2n2cnnc2n1-c1ccccc1
    -1.6	-1	1	x	x	x	x	x	x	-13
- COc1ccc(NC(=O)COc2ccc(N(C)S(=O)(=O)c3ccc(Cl)cc3)cc2)cc1OC
    3.7	x	-1	14	-0.3	-18	-18	0.0	i	-4
- O=C(CSc1oc(-c2ccc(F)cc2)nc1S(=O)(=O)c1ccccc1)NCC1CCCO1 (centres undefined)
    -1.8	-18	12	2	x	x	x	x	x	-3
- O=C(NCCc1csc(-c2cccnc2)n1)c1cccc2ccccc12
    2.4	5	3	-1	-4.0	-4	-22	-0.7	i	-9
- C=CCOc1ccc(C2=NOC(C(=O)Nc3ccc4c(c3)OCCO4)C2)cc1OC (centres undefined)
    -0.5	x	4	13	0.1	3	3	-3.4	i	3
- O=C1[C@@H]2CSCN2C(=O)CN1Cc1cccc(C(F)(F)F)c1
    -3.0	-9	-9	-7	-0.2	5	9	-3.8	i	1
- COc1cc2c(cc1OC)C(c1ccccc1)=NCC2
    -0.4	-5	-1	11	0.3	-4	1	0.2	i	-5
- O=C(COc1ccccc1C(=O)Nc1ccccc1)c1ccc(F)cc1
    6.2	-11	-5	8	-0.1	3	12	3.2	i	-7
- O=C(Cc1cccc(F)c1)N1CCCC(CO)(Cc2ccc(F)cc2F)C1 (centres undefined)
    3.7	x	6	1	-0.1	-16	-17	-8.6	i	-6
- O=C1N[C@@H](Cc2ccccc2)C(=O)N2CCC[C@@H]12
    -2.0	-1	-5	-2	-4.7	20	17	1.9	i	-1
- Cc1ccc(SCC(=O)n2nc(C)cc2C)cc1
    5.9	-1	-3	-7	-2.6	6	5	-5.9	i	-8
- O=C(NNC(=O)c1cc(-c2ccncc2)nc2ccccc12)c1cccc(Cl)c1
    -1.6	0	-2	-4	-0.4	2	10	-3.2	i	x

Complete entries as entered above.
O=C(NNC(=O)c1cc(-c2ccncc2)nc2ccccc12)c1cccc(Cl)c1 is listed as RanGTP-Impb inh: -1.6; ALR H2O2 inh: 0; Calb FLC: -2; T cruzi inh: -4; MLL AF4-AF9 inh: -0.4; Ecoli rRNA inh: 2; Ecoli rRNA inh OD600: 10; Ecoli rRNA inh RFP: -3.2; FGF22 binding: i; Beta cell apopt: x
CCc1nc(C)cc(N)c1OCc1ccccc1 is listed as RanGTP-Impb inh: 2.5; ALR H2O2 inh: 4; Calb FLC: -10; T cruzi inh: 6; MLL AF4-AF9 inh: x; Ecoli rRNA inh: x; Ecoli rRNA inh OD600: x; Ecoli rRNA inh RFP: x; FGF22 binding: x; Beta cell apopt: 2

Shown as a hit in RanGTP-Impb inh, of those listed so far:
Molecule	RanGTP-Impb inh	ALR H2O2 inh	MLL AF4-AF9 inh	Ecoli rRNA inh	Ecoli rRNA inh OD600	Ecoli rRNA inh RFP
CC(=O)c1c(N2CCN(Cc3ccccc3)CC2)nc(=S)n(-c2ccccc2)c1C	85*	-1	13	6	1	4.7
CCc1nnc(NC(=O)C(C)Sc2ccccc2)s1 (centres undefined)	25*	-8	-6.2	-2	4	-1.1
